Bioassay records: PubChem, National Center for Advancing Translational Sciences (NCATS)
SARS PLP yeast: blocks SARS-CoV papain-like protease in a yeast assay. AID 485353. 330,000 compounds, 0.19% hits. S. cerevisiae expressing SARS-CoV PLpro, growth rescue; control for the full effect not named in the record. Potency, µM (top dose mostly 32.9 µM), without a hit: at the highest dose activity, positive = growth rescue; further: 0% is about no effect; nearly all actives have a fitted effect of over 55% in size; growth read by luminescence after 48 h
StopGo reporter: lowers the luciferase signal of an FMDV 2A StopGo reporter; 410,000 compounds, 1.2% hits; Potency, µM (doses to about 57.9 µM), for inactives: at the highest dose signal change, negative = less light; human cells with a luciferase reporter of 2A StopGo recoding; control for the full effect not named in the record; active = well fitted falling curve with a large enough effect; inconclusive = small, poorly fitted or top-dose-only effect; inactive = no such curve, though single readings can be large or run the other way; tested in HEK293T cells; further: on the % scale 0 is the no-effect control and ±100 the full control effect; nearly all actives have a fitted effect of over 45% in size; luciferase light after 4 h
NS1 inh: influenza NS1 inhibition; S. cerevisiae slowed by influenza A NS1, growth recovery by OD600; Potency, µM (series often up to 46.1 µM), inactives show at the highest dose activity, positive = more growth; 270,000 compounds, 0.4% hits; further: actives are rising curves; nearly all actives have a fitted effect of over 50% in size
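A cell-based growth assay was used: compounds that relieve NS1-induced slow growth of budding yeast raise OD600. Assay medium was yeast nitrogen base with ammonium sulphate and -URA supplement, pH 6.0, with 2% galactose.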
Cruzain inh noDet: blocks cruzain activity in detergent-free assay. purified cruzain, Z-FR-AMC fluorescence, no detergent. Potency, µM, for the others: max response, negative = inhibition, usual class: inhibitors. 200,000 compounds, 2.3% hits. AID 1476; active means well fitted curve in the direction sought with a large enough effect; inconclusive means small, poorly fitted or top-dose-only effect, or another doubt; inactive means no such curve, though single readings can be large; an effect the other way counts as inactive or inconclusive;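 further: plate controls were enzyme without inhibitor for no effect and buffer without enzyme for full effect; nearly all actives have a fitted effect of over 40% in size; top concentration of the series not given in the record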
Target sequence (P25779 123-467 limits assumed): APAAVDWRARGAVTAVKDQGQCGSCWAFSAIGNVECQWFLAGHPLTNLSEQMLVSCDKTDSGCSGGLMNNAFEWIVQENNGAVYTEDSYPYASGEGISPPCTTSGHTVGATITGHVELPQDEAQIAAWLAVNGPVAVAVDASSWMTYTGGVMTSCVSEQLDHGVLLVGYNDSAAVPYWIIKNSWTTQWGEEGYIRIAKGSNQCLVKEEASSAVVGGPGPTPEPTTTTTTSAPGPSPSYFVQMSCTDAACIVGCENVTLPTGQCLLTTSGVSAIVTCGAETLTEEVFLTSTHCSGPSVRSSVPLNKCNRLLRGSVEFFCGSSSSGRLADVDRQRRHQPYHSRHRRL
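Purified cruzain at 1.5 nM, pre-incubated 15 min with compound at room temperature in 100 mM sodium acetate pH 5.5, 5 mM DTT, 0.00005% Triton X-100. Reaction started with 2 uM Z-FR-AMC; AMC fluorescence increase over 60 s gives rate.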
RE007 growth inh: less growth of the S. pombe RE007 Vpr strain; S. pombe RE007 Vpr strain, BacTiter-Glo ATP luminescence, 24 h; control for the full effect not named in the record; Potency, µM (highest dose often 92.2 µM), inactives show top-dose activity change, negative = less growth; 360,000 compounds, 0.21% hits; active = well fitted falling curve with a large enough effect; inconclusive = small, poorly fitted or top-dose-only effect; inactive = no such curve, though single readings can be large or run the other way;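 further: on the % scale 0 is the no-effect control and ±100 the full control effect; nearly all actives have a fitted effect of over 50% in size; the assay follows cell death caused by Vpr and the record does not say whether a fall means rescue or toxicity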
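Fission yeast strain RE007, carrying one chromosomally integrated HIV-1 vpr copy, was seeded at OD 0.01 in PMG+AL medium with 23 nL pinned compound. After 24 h at 30 °C and 99% humidity, viability was read by BacTiter-Glo luminescence.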
MARV entry inh: Marburg virus entry inhibition; Marburg virus pseudotyped entry inhibition, cell reporter; control for the full effect not named in the record; about a third of the inactives were read at about 46 µM; Potency, µM (top dose mostly 37.8 µM), for the others: at the top dose activity change, negative = inhibition, usual class: inhibitors; 300,000 compounds, 1.8% hits; active = well fitted inhibition curve with a large enough effect; inconclusive = small, poorly fitted or top-dose-only effect, or effect the other way; inactive = flat fitted curve, though single readings scatter; tested in HEK293 cells; about a fifth of its hits are not listed in these tables; further: on the % scale 0 is the no-effect control and ±100 the full control effect; luciferase read-out
Cruzain inh Det: blocks cruzain activity in presence of Triton detergent; P25779; purified cruzain, Z-FR-AMC fluorescence, 0.01% Triton; Potency, µM, inactives show max response, negative = inhibition, most hits filed as inhibitors; 200,000 compounds, 0.43% hits; active means well fitted curve in the direction sought with a large enough effect; inconclusive means small, poorly fitted or top-dose-only effect, or another doubt; inactive means no such curve, though single readings can be large; an effect the other way counts as inactive or inconclusive;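 further: plate controls were neutral wells for no effect and buffer without enzyme for full effect; nearly all actives have a fitted effect of over 40% in size; top concentration of the series not given in the record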
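Z-FR-AMC hydrolysis (2 uM substrate) by cruzain (1.5 nM) monitored kinetically at ex 360/em 450 nm after 15 min room-temperature compound exposure; 0.01% Triton X-100, pH 5.5, 5 mM DTT.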
Lassa entry inh: blocks Lassa virus binding to or entry into cells; Potency, µM (top dose mostly 37.9 µM), for the others: top-dose activity change, negative = inhibition, hits mostly inhibitors; 300,000 compounds, 1.2% hits; Lassa virus pseudotype entry inhibition, cell reporter; control for the full effect not named in the record; active means well fitted inhibition curve with a large enough effect; inconclusive means small, poorly fitted or top-dose-only effect, or effect the other way; inactive means flat fitted curve, though single readings scatter; tested in HEK293 cells; further: on the % scale 0 is the no-effect control and ±100 the full control effect; nearly all actives have a fitted effect of over 50% in size; luciferase read-out
* hit, by the source's call; ? = inconclusive; . = no result given; & = joins results of further samples; [ ] = remark or other dose. Unless noted, the call rests on the fitted dose curve; in most records, active means well fitted rising curve with a large enough effect; inconclusive means small, poorly fitted or top-dose-only effect; inactive means no such curve, though single readings can be large or run the other way. Potency means the concentration at half of the fitted maximal effect.

Each structure is followed by: Cruzain inh Det | StopGo reporter | SARS PLP yeast | MARV entry inh | Cruzain inh noDet | Lassa entry inh | RE007 growth inh | NS1 inh
COc1cc(/C=N/N=C2/NC(=O)C(Cc3ccccc3)S2)ccc1O (centres undefined)
  . | 23% | -2% | ? | . | ? | -8% | .
CC(C)Oc1ccc(C(=O)NNC(=O)c2ccccc2C(=O)O)cc1
  -0.5% | 55%[activator] | -9% | . | 13% | . | 12% | 1%
Cc1ccc([N+](=O)[O-])cc1S(=O)(=O)Nc1cccc(S(=O)(=O)Nc2ccccc2C(=O)O)c1
  . | -18% | 5% | -3% | . | 4% | 1% | .
CCOc1cccc2sc(=NC(=O)CCS(=O)(=O)c3ccc(F)cc3)n(C)c12
  . | ? | . | ? | . | ? | -6% | .
Cc1ccc(CNC(=O)c2ccc(CS(=O)Cc3cccc(Cl)c3)o2)cc1 (centres undefined)
  -5.5% | 4%&-13% | 1% | -27%&-27%[46.1 µM] | ? | ? | 2% | 4%
Cc1ccc(OCn2c(=O)sc3ccccc32)cc1
  -6.2% | 39%[activator] | -13% | 1% | -4% | 10% | 0% | -23%
O=C(CN1C(=O)CCc2cc(S(=O)(=O)N3CCOCC3)ccc21)Nc1cccc(C(F)(F)F)c1
  -6.1% | 6% | . | . | ? | ? | . | .
COc1ccc(NC(=O)NC2CCCCCCC2)cc1OC
  . | 39%[activator] | -6% | . | . | . | 15% | -5%
COc1ccc(C(CNC(=O)c2ccc(N3CCCC3=O)cc2)N2CCCC2)cc1 (centres undefined)
  . | -19% | -4% | 0% | . | 4% | -15% | .
COc1ccc2[nH]c3c(NCCN4CCCCC4)ncnc3c2c1
  16µM* | . | 1% | -5% | 13µM* | . | . | 5%
O=C(Nc1ccccn1)c1ccc(C(=O)c2ccccc2)cc1
  . | -6% | 2% | ? | . | ? | -14% | .
Cc1ccc(OCCn2ncc3ccccc3c2=O)c(C)c1
  . | 20% | 0% | 5% | . | . | -15% | -9%
CC12CCC(C(=O)NCCN3CCCCC3)(CC1=O)C2(C)C (centres undefined)
  6.2% | 1% | 5% | 15% | -8% | -7% | -13% | ?
Oc1c(Cl)cc(Cl)cc1C=Nc1ccc(Br)cc1
  -2.6% | -10% | -7% | -6% | 2% | -9% | -15% | -8%
CCOC(=O)N1CCN(CC(=O)Nc2ccc([N+](=O)[O-])cc2C(=O)Nc2ccccc2F)CC1
  -5.3% | ? | -15% | 0% | 12% | 0% | 16% | 25%
COCCCn1c(SCC(=O)NC2CCCC2)nnc1-c1cccs1
  . | -1% | 14% | -8%[46.1 µM] | . | . | -15% | 6%
COc1ccccc1N1CCN(C(=O)CN(c2cc(C)cc(C)c2)S(C)(=O)=O)CC1
  2.1% | . | -6% | -17% | ? | -16% | 15% | -6%
COc1ccc(-n2c(Cc3cccn3C)nnc2SCC(=O)Nc2ccccc2C)cc1
  1.8% | 4% | -2% | . | 0% | . | 3% | -2%
CCOC(=O)C(CC)n1cnc2c(cnn2-c2ccc(Cl)cc2)c1=O (centres undefined)
  1.6% | ? | 1% | -4% | 20% | ? | 8% | 1%
Cn1c(SCC(=O)N2CCN(S(=O)(=O)c3ccccc3)CC2)nc2ccccc21
  1.9% | -17% | -5% | -1% | -9% | -5% | 9% | -12%
O=C(c1cn(CC(=O)N2CCCC2)c2ccccc12)C1CCCCC1
  1.9% | 11% | 8% | ? | -1% | 25% | 11% | -13%
O=C(c1cc([N+](=O)[O-])ccc1N1CCOCC1)N1CCN(c2ccc([N+](=O)[O-])cc2)CC1
  . | -6% | 2% | ? | . | 3% | -11% | .
O=[N+]([O-])c1ccc(N2CCN(Cc3ccncc3)CC2)cc1
  . | -18% | 0% | . | . | . | -8% | -2%
CCOc1ccc(C(=O)N2CCC3(CC2)NCCc2[nH]cnc23)cc1OCC
  . | 10% | 1% | . | . | . | 4% | 5%
CCOC(=O)C1CCCN(C(=O)/C(=C/c2ccco2)NC(=O)c2ccccc2)C1 (centres undefined)
  . | -11% | 5% | -17%[46.1 µM] | . | -7% | -7% | 15%
Cc1cccn2c(=O)c(C=Nc3ccccc3)c(NCCO)nc12
  -2.1% | . | -4% | 12% | -4% | 15% | 11% | -4%
Nc1ccc(-n2c(N)c(C(=O)NCc3ccc4c(c3)OCO4)c3nc4ccccc4nc32)cc1
  . | ? | . | ? | . | -6% | -12% | 14%
COc1ccc(/C=C/C(=O)N[C@@H](C)C(=O)O)cc1
  -4.2% | 3% | -19% | -28% | -1% | 3% | -16% | 16%
O=C(CCCCCN1C(=O)CCC1=O)Nc1ncn[nH]1
  6.0% | -7% | -5% | 0% | 0% | 10% | 14% | 4%
CCCc1c(O)nc(SCC(=O)N2CCCCC2)[nH]c1=O
  . | 4% | 2% | . | . | . | 2% | 10%
N#Cc1c(NCCO)ccc([N+](=O)[O-])c1NCCO
  . | -4% | 0% | -3%[14.2 µM] | . | -2% | -17% | 0%
COc1ccc(C(=O)CSc2ccc(-c3ccco3)nn2)cc1
  -11% | -11% | -35% | ? | -4% | 27% | -16% | 4%
O=C(OCc1nc(-c2ccccc2)oc1COC(=O)c1ccco1)c1ccco1
  -8.6% | . | -11% | 8% | 4% | -1% | 0% | -45%
COc1ccccc1C(C)NCC(=O)NCc1ccc(C)cc1 (centres undefined)
  . | -13% | -1% | -1% | . | -19% | 7% | 3%
CCOc1ccc(CCNC(=O)CCSCc2cccc(Cl)c2)cc1OCC
  0.2% | -2% | . | . | ? | 7%[46.1 µM] | . | .
CC(CN1CCN(Cc2ccccc2)CC1)OC(=O)c1ccco1 (centres undefined)
  . | -4% | 7% | ? | . | 20%[46.1 µM] | 2% | -33%
CC(=O)c1cc2c(C)cc(=O)oc2cc1O
  -5.1% | . | -8% | 0% | -6% | 25% | -4% | -9%
CC(C)OCCCNc1nc2c([nH]1)c(=O)n(C)c(=O)n2C
  4.3% | -9% | 3% | -9% | -9% | 11% | -4% | 7%
Cc1ccc(-c2nc3ccccc3[nH]c2=O)cc1
  . | 19% | -1% | . | . | . | -22% | -1%
Cc1cc(C)c2c(c1)cc(C)c1nnc(SCC(=O)N3CCCc4ccccc43)n12
  -3.7% | -13% | -18% | 4% | -1% | 18% | . | 3%
Cc1cc(N)n(-c2ccc(C)c(C)c2)n1
  . | 36%[activator] | 2% | 11%[46.1 µM] | . | -10%[46.1 µM] | -13% | .
CC(=O)c1ccc(S(=O)(=O)N2CCC(Oc3ccc(-n4cnnn4)cc3)CC2)cc1
  0.4% | -3%&-4% | 1% | ? | 0% | -3%[46.1 µM] | 13% | 2%
CCc1nccn1CCC(=O)N1CCc2c([nH]c3ccccc23)C1CC(C)C (centres undefined)
  . | -10% | 2% | . | . | . | -6% | 3%
Cc1ccc(C(=O)Nc2ccc(S(=O)(=O)Nc3cnc4ccccc4n3)cc2)cc1
  . | 51%[activator] | -7% | ? | . | 17%[46.1 µM] | 2% | 3%
Cc1cccc(C)c1NC(=O)CN(C)C(=O)c1ccccc1C(=O)N(C)Cc1ccccc1
  . | 5% | 3% | -23%[46.1 µM] | . | -3%[46.1 µM] | 7% | 3%
Cc1c(N2C(=O)c3ccccc3C2(O)c2ccccc2)c(=O)n(-c2ccccc2)n1C (centres undefined)
  . | -14% | 0% | . | . | . | -2% | 0%
COc1ccc(N(CC(=O)N/N=C/c2cc(OC)ccc2OC)S(=O)(=O)c2ccccc2)cc1
  . | -3% | 2% | . | . | . | 0% | -1%
CC1(C)CC(=O)C(C=NCCN2CCN(C(=O)CCl)CC2)=C(O)C1
  . | -20% | -4% | . | . | . | -3% | 4%
COc1ccc(Oc2ccc(/C=C/C(=O)c3cccc(OC)c3)cc2[N+](=O)[O-])cc1
  -4.2% | 32µM* | -6% | ? | ? | ? | 15% | -9%
CC(C)OC(=O)c1ccc(Cn2nnc3ccccc3c2=O)cc1
  -6.9% | 17% | -1% | ? | 11% | 2% | 2% | 1%

Carrying on:
Each structure is followed by: Cruzain inh Det | StopGo reporter | SARS PLP yeast | MARV entry inh | Cruzain inh noDet | Lassa entry inh | RE007 growth inh | NS1 inh
COc1ccc(N2CCN(C(=O)C(C)n3nc(C)c4sc5ccccc5c4c3=O)CC2)cc1 (centres undefined)
  -7.3% | -30% | . | ? | -1% | ? | . | .
COc1ccc(C(=O)/C=C/c2cccnc2)c(OC)c1
  . | ? | -13% | . | . | . | -15% | -15%
Cc1cc(C(=O)N/N=C/c2ccc3c(c2)OCO3)c(C)o1
  . | 38%[activator] | -4% | -11%[14.2 µM] | . | 1% | ? | -8%
Cc1ccc2cccc(OCCOCCOc3ccccc3Br)c2n1
  -5.4% | -16% | 21% | -18% | 24% | -16% | 6% | -33%
CCOc1ccc(CNC(=O)CSc2c3c(nc4cc(Cl)ccc24)CCCC3)cc1
  -7.5% | ? | . | 7%[46.1 µM] | 3% | ? | . | .
Nc1ncc(C(=O)O)c(-c2ccccc2)n1
  . | -9% | . | -8% | . | ? | -4% | .
CCOc1ccc(C(=O)N(CC(=O)Nc2cccc(C)c2C)CC2CCCO2)cc1OC (centres undefined)
  . | 13% | 4% | 5% | . | 0% | -28% | .
C=CCOC(=O)C1=C[C@H](C2CCCCC2)[C@@H](CCCO)[C@H](OCC)O1
  . | 0% | -1% | . | . | . | -8% | 2%
CC(C)N(Cc1ccccc1)C(=S)Nc1ccc(OC(F)F)cc1
  -2.3% | -12% | -3% | -5% | -6% | 0% | -12% | 5%
O=C(CN1C(=O)c2ccccc2C1=O)NC1CCCCCC1
  . | 12% | -2% | -1%[46.1 µM] | . | 17%[46.1 µM] | 8% | -7%
COc1ccc(S(=O)(=O)N2CCCC2CNC(=O)C(=O)Nc2ccc(F)cc2)cc1 (centres undefined)
  . | 0% | -6% | -22%[46.1 µM] | . | -9% | -6% | .
Cc1cc(F)ccc1S(=O)(=O)Nc1ccccc1C(=O)NC1CCN(Cc2ccccc2)CC1
  . | 1% | 4% | ? | . | ? | 0% | .
COC(C(=O)Nc1ccnn1C1CCN(Cc2nccs2)CC1)c1ccccc1 (centres undefined)
  . | 19% | -4% | 4% | . | 8% | -4% | 0%
